rRNA inh HTS: reduced GFP signal of wild-type E. coli, primary screen, bacterial rRNA inhibitor project, GFP/RFP fluorescence, OD600, single point; 350,000 tested, 1.6% active; GFP signal change (wild-type ribosome), % (concentration not given with the values); E. coli WT GFP vs humanized-ribosome RFP mutants, 24 h; hits give low values; DMSO median 0, no signal -100;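 active = significant combined selectivity score with lowered wild-type GFP, culture density cut under 30%, mutant RFP and density less affected; inactive = any of these conditions unmet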; note: one replicate is shown; some compounds called inactive have numbers as strong as hits
ALR H2O2 inh: inhibitors of human ALR sulfhydryl oxidase, primary screen, biochemical, H2O2 detection, HRP-luminol luminescence, single point. FAD-linked sulfhydryl oxidase ALR (Homo sapiens), P55789. purified ALR, DTT oxidation. inhibition, % (test concentration not listed). 290,000 tested, 3.8% active;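 active = mean and each replicate at 75% or more; inconclusive = only one of the two met; inactive = neither met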;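 note: stock transfer was 7.5 nL into about 7.5 µL; 0% = neutral wells and 100% = wells with inactivated enzyme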
Beta2AR agonist: beta2AR agonists driving receptor internalization, primary screen, cell-based, FAP fluorogen, flow cytometry | 340,000 tested, 0.43% active | Beta-2 adrenergic receptor (Homo sapiens), P07550 | AID 504454, 2011 | Am2.2-beta2AR cells; reference of the scale not given here | response, % (concentration not given with the values);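 active = response above a set limit, near 3 SD of response in nonfluorescent compounds, cut at about 42% in these data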;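 note: stock transfer was 100 nL into about 11 µL; a reference agonist was the positive control; negative values mostly stem from fluorescent compounds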
HNF4A DNA FP: change in binding of human HNF4A to DNA, primary screen, biochemical, fluorescence polarization, FITC-DNA; Hepatocyte nuclear factor 4-alpha (Homo sapiens), P41235; 1 h; activity change, % at 10 µM; 360,000 tested, 0.3% active; AID 1224865, 2016; in the data active = activity change above about 30%, passing the limit was not always enough;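 note: controls were the assay level and a saturating level of protein; the project sought stronger binding though the title names inhibitors; some compounds called inactive have numbers as strong as hits; positive values seem to mean higher polarization but the record does not say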
Target sequence (P41235 whole entry, looked up): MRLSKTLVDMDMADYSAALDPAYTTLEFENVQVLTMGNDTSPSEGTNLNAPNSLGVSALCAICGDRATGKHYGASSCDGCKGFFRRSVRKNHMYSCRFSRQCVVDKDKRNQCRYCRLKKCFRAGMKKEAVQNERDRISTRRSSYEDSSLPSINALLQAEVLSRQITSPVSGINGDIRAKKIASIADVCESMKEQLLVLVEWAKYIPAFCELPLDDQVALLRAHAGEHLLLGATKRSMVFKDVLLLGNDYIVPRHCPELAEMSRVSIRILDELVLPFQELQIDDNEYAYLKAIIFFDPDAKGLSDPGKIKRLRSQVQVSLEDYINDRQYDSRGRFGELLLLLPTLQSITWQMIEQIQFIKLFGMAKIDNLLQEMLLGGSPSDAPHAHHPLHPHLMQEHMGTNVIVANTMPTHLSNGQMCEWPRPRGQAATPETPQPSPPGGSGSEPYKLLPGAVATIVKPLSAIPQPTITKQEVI
FGF22 binding: binders of human FGF22 protein, primary screen, FGF22 synaptogenesis inhibitor project, biophysical, thermal shift, single point | Fibroblast growth factor 22 (Homo sapiens), Q9HCT0 | recombinant FGF22 thermal shift, SYPRO orange fluorescence; percent of sucrose octasulfate shift, DMSO zero | calls only at 9.99 µM | 340,000 tested, 1.5% active | AID 651658, 2012;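 active = melting point raised past a set limit in the mean and every replicate; inconclusive = no clear call; three in four hits are not shown here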
Target sequence (Q9HCT0 whole entry, looked up): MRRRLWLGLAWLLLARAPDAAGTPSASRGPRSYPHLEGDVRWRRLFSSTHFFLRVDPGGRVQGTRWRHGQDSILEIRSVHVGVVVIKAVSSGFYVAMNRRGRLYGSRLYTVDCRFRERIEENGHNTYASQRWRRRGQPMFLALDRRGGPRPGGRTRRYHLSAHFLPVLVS
UCH37 DUB inh: inhibitors of human UCH37 deubiquitinase, primary screen, biochemical, Ub-AMC cleavage, fluorescence | Ubiquitin carboxyl-terminal hydrolase isozyme L5 (Homo sapiens), Q9Y5K5 | purified proteasome/UCH37 | inhibition, % (no concentration beside the values) | 330,000 tested, 0.33% active;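 active = mean of two replicates above 20%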;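 note: 0% = compound-free wells with enzyme and 100% = wells lacking proteasome; stock transfer was 100 nL into about 20 µL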
Target sequence (Q9Y5K5 whole entry, looked up): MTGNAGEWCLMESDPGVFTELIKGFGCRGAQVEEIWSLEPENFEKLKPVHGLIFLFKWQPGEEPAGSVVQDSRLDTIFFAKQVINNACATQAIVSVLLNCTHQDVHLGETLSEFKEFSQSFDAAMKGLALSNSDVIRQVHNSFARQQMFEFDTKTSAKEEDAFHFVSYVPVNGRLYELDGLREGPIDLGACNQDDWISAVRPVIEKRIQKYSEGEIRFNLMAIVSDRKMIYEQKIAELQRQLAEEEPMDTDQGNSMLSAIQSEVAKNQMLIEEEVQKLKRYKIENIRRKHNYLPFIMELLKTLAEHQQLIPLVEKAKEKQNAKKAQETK
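Material: Human UCH37 enzyme supplied as purified proteasome complex | Schedule: 30 min compound-proteasome preincubation then 25 min substrate reaction, room temperature | Detection: AMC fluorescence from Ub-AMC cleavage, excitation 355 nm, emission 460 nm | Benchmarks: Wells without proteasome as full block, compound-free enzyme plus substrate as uninhibited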
Ecoli growth: E. coli growth inhibition, primary screen, OD600 | Escherichia coli growth, 23 h; hits give low values | OD600 absorbance (test concentration not listed) | 330,000 tested, 0.21% active;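 active = OD600 absorbance below the run mean of sample wells minus 3.6 SD, in any replicate, cut at about 0.56 in these data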;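 note: stock transfer was 300 nL into about 60 µL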
rRNA inh HTS OD600: recorded beside rRNA inh HTS, whose call it bears; OD600 change, %; measured here: OD600 growth;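 optical density of the mix in the first replicate; 0 = DMSO median and -100 = no signal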
rRNA inh HTS RFP: also measured in rRNA inh HTS; calls as there; RFP signal change, %; measured here: RFP humanized mutant strains;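 first replicate; 0 = DMSO median and -100 = no signal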
* hit, by the source's call; i = inactive; ? = inconclusive; nt = no result given; + = active, no number; & = joins results of further samples. Not all compounds are listed; rates above refer to the full screens.

SMILES	rRNA inh HTS	rRNA inh HTS OD600	rRNA inh HTS RFP	ALR H2O2 inh	Beta2AR agonist	HNF4A DNA FP	FGF22 binding	UCH37 DUB inh	Ecoli growth
CCOC(=O)c1[nH]cnc1C(=O)Nc1cccc(N)n1	nt	nt	nt	-12	-3	1.1	nt	2.2	0.71
Nc1ccc(C23CC4CC(CC(C4)C2)C3)cc1	nt	nt	nt	nt	3	-0.7	i	-0.3	0.69
CCCCOC(=O)c1ccc(NC(=O)CSc2nncn2C)cc1	nt	nt	nt	-23	-11	-5.2	nt	nt	0.67
COC(=O)C[C@H]1c2cc(F)ccc2S(=O)(=O)N1Cc1ccccc1	6	13	-6.0	3	-5	3.0	i	6.7	0.78
CCOc1ccc(N(CC(=O)NCc2cccs2)S(=O)(=O)c2c(C)noc2C)cc1	-2	-10	2.2	-85	-3	-1.4	i	3.5	0.75
CC(OC(=O)c1cccs1)C(=O)NC1CCCCC1C (stereo not drawn)	3	10	-2.5	2	-3	1.4	i	2.5	0.7
COc1cccc(-n2c(SCC(=O)N3CCc4ccccc43)nnc2-c2c[nH]c3ccccc23)c1	nt	nt	nt	nt	-7	-2.1	i	0.6	0.68
COC(=O)c1cc(NS(=O)(=O)c2ccc(C)c3ccccc23)ccc1N1CCOCC1	-19	-14	12	nt	6	-0.9	i	1.3	0.6
Cc1cc(C)nc(SCC(=O)NC2CCCCC2C)n1 (stereo not drawn)	17	11	-0.7	-3	-8	-1.2	i	-0.6	0.6
Clc1ccccc1Cn1nnc2c(Nc3ccccc3)ncnc21	-13	-10	-7.3	-6	-5	0.3	i	-8.8	0.7
N#Cc1ccc(OCC(=O)NCC(c2cccs2)N2CCOCC2)cc1 (stereo not drawn)	5	3	-0.8	-1	-1	-0.9	i	-1.1	0.66
COc1ccc(C2=NN(C(=O)CCC(=O)O)C(c3cccs3)C2)cc1 (stereo not drawn)	11	2	2.2	-4	-7	1.6	nt	nt	nt
COc1ccc(C(O)(c2ccccc2OC)C(CN2CCOCC2)c2ccccc2)cc1 (stereo not drawn)	-29	-27	-5.2	-1	4	1.1	i	2.3	0.67
COc1ccc(S(=O)(=O)NCc2ccncc2)cc1NC(=O)c1ccccc1	-3	-3	-1.5	-12	6	-6.8	i	2.0	0.68
CC/C(C)=N/N1C(=O)c2ccccc2NC1(C)CC (stereo not drawn)	9	4	-2.7	-15	6	2.2	i	nt	nt
Cc1cccc(N2CCN(C(=O)c3cc(S(=O)(=O)N(C)C)ccc3N3CCCC3)CC2)c1C	-1	-5	3.1	-38	-3	0.3	i	5.7	0.69
O=C(c1cc(-c2ccc3c(c2)OCO3)on1)N1CCN(c2ccccc2)CC1	nt	nt	nt	-15	4	3.7	nt	-3.6	0.64
COc1ccc2c(c1OC)C(=O)N1C2SC(C)(C)[C@H]1C(=O)NCCCOC(C)C (stereo partly drawn)	8	17	-0.3	-6	-11	1.2	i	-33	0.69
CN(CCC#N)C(=O)COC(=O)c1ccc(Cl)c(S(=O)(=O)N(C)c2ccccc2)c1	-27	-23	-2.0	-2	2	-0.1	i	1.7	0.67
CCC(=O)c1ccc(O)c(CC=C(C)C)c1	nt	nt	nt	17	4	-2.0	nt	2.7	0.73
O=C(CSCC(=O)OCC(=O)c1ccc(Br)cc1)Nc1cccc2ccccc12	nt	nt	nt	-106	2	-0.5	nt	1.9	0.73
C[C@@H]1CN([C@H](C)CO)S(=O)(=O)c2ccc(-c3cccc(C#N)c3)cc2O[C@H]1CN(C)C(=O)Nc1cc(F)ccc1F	2&-3	-18&-15	2.2&8.0	nt	nt	-2.4	i	nt	nt
CCOC(=O)c1cn2nc(Oc3ccc(OC)cc3)ccc2n1	10	2	-0.6	1	8	-1.7	i	6.1	0.68
COc1ccc(C(=O)C2CCCN(Cc3ccc4nonc4c3)C2)c(OC)c1 (stereo not drawn)	-28*	-22*	0.4*	-20	8	0.7	nt	4.7	0.66
COc1cc(Cl)c(C)cc1NC(=O)COc1ccc(C)nc1[N+](=O)[O-]	0	4	0.1	nt	-4	-3.1	i	-0.7	0.68
Cc1ccc(NC(=O)CSc2ccc3c(c2)OCCO3)nc1	1	1	-2.2	98*	1	-2.3	i	3.5	0.68
Cc1ccc(OCC(=O)N(Cc2ccco2)c2c(N)n(Cc3ccccc3)c(=O)[nH]c2=O)cc1C	5	17	-3.9	nt	-1	0.3	i	-0.8	0.7
CC(=O)/C=C1\OCc2ccccc21	12	12	-2.2	nt	nt	1.1	i	nt	nt
COc1cc(NC(=O)CSc2nnc(-c3ccncc3)o2)cc(OC)c1OC	2	7	-3.7	2	5	-3.4	i	0.2	0.7
Clc1ccc(-c2ccc(CNCC3CCCO3)o2)cc1 (stereo not drawn)	6	0	0.1	nt	-1	0.5	i	3.6	0.65
CCCSc1nnc(NC(=O)CSc2sc3c(O)cc(=O)[nH]c3c2C#N)s1	0	6	2.9	?	13	1.6	i	9.9	0.71
COc1ccc(Cc2nnc(NS(=O)(=O)c3ccc([N+](=O)[O-])cc3)s2)cc1	-9	0	-1.5	-11	4	-1.9	i	4.2	0.68
Cc1ccccc1C(=O)N1CCN(c2ncccn2)CC1	13	6	1.6	-6	0	1.4	i	0.7	0.64
COc1ccccc1/C=C/C(=O)Nc1ccc(S(=O)(=O)Nc2cc(C)nc(C)n2)cc1	-4	-19	0.5	50	12	-1.6	i	1.2	0.65
O=C(NCSc1ccncn1)c1ccccc1	nt	nt	nt	99*	6	-1.5	nt	4.6	0.66
COc1cc(Cl)c(C)cc1NC(=O)CN(C)C1CCS(=O)(=O)C1 (stereo not drawn)	-7	-4	-1.8	-4	1	0.5	i	4.5	0.7
O=C(O)/C=C/C(=O)N1CCN(c2cccc(Cl)c2)CC1	-1	4	-2.0	12	8	-0.4	i	0.8	0.66
COc1cccc(OC)c1C(=O)Nc1ccc2c(c1)N(S(=O)(=O)c1cccs1)CCC2	5	7	3.0	-11	7	1.7	i	6.0	0.69
Cc1nc(-c2cc(-c3nc(-c4ccc(C(F)(F)F)cc4)no3)no2)cs1	11	-1	-1.1	-1	-1	0.4	i	-4.8	0.69
Brc1cc(Br)cc(CN2CCSCC2)c1	1	12	-3.6	-4	8	-3.6	i	2.6	0.66
O=C(NC1CCCCC1)C(c1ccccn1)N(C(=O)c1csnn1)c1ccccc1F (stereo not drawn)	-1	4	-1.4	-5	-7	2.9	i	6.9	0.69
CCn1cc(C(=O)N2CCc3ccccc32)c(=O)c2cc(S(=O)(=O)N(C)C3CCCCC3)ccc21	nt	nt	nt	0	4	-0.2	nt	0.3	0.71
CC(C)(C)C(=O)Nc1nnc(-c2ccccc2)c(-c2ccccc2)n1	-5	-12	0.2	3	-10	3.6	i	3.9	0.7
O=c1[nH][nH]c2c1[C@H](c1ccc(Cl)cc1)O[C@H](C1CCCCC1)C2	-4	-8	4.4	nt	nt	-3.9	i	nt	nt
O=C1NC(=O)C(c2ccccc2[N+](=O)[O-])=C1Nc1ccc(O)c(Cl)c1	nt	nt	nt	99*	3	-1.9	i	1.1	nt
CC1(C(=O)Nc2ccc3c(c2)OCCO3)CSCC(=O)N1CCCN1CCOCC1 (stereo not drawn)	12	7	0.6	nt	nt	9.6	i	nt	nt
CCn1c(=O)cc(NC2=NCC(C)CN2c2cccc(Cl)c2)n(C)c1=O (stereo not drawn)	nt	nt	nt	-6	-15	3.6	nt	-1.4	0.66
CC(=O)c1c(C)[nH]c(C(=O)OCC(=O)NCCCc2ccccc2)c1C	-5	-4	4.2	-1	-5	3.6	i	1.5	0.68
Cc1c(NCc2cc(Cl)ccc2O)c(=O)n(-c2ccccc2)n1C	nt	nt	nt	nt	-1	-0.9	nt	-0.3	0.63
NC(=O)C1CCCN(C(=O)CCc2nnc(C3(c4ccc(Cl)cc4)CCC3)o2)C1 (stereo not drawn)	11	7	1.8	-1	0	2.2	i	-0.3	0.69
O=C(Nc1ccc(Br)cc1)/C(=C/c1cccc([N+](=O)[O-])c1)NC(=O)C1CCCCC1	nt	nt	nt	nt	3	-1.7	nt	1.2	0.69
CC(CNC(=O)COC(=O)c1cccs1)c1ccccc1 (stereo not drawn)	nt	nt	nt	-2	2	1.9	i	4.1	0.72
COC(=O)/N=C/c1c(NCc2ccccc2)nc2c(C)cccn2c1=O	nt	nt	nt	?	-5	-1.2	nt	-6.0	nt
C=CCc1ccc(OCCn2nnc3ccccc32)c(OC)c1	-2	8	2.3	-3	-5	-0.2	i	nt	nt
CC(=O)c1ccc(NC(=O)C(C)Nc2ccc(Cl)cc2)cc1 (stereo not drawn)	2	11	-1.9	14	-7	0.0	i	2.6	0.7
C/C(=N\NC(=O)c1nn(C)c(C)c1Br)c1ccc(NC(=O)c2ccoc2C)cc1	nt	nt	nt	-11	15	-2.9	nt	nt	nt
COc1ccc(C(=O)/C=C/C(=O)N(Cc2ccccc2)C(C(=O)NC2CCCCC2)c2ccncc2)c(O)c1 (stereo not drawn)	-13	-8	-5.7	0	-9	1.1	i	1.5	0.66
O=C(CSc1nc2ccccc2s1)Nc1ncccn1	nt	nt	nt	98*	-4	-1.1	nt	3.1	0.73
CCOc1cc(NC(=S)NCc2ccccc2)c(OCC)cc1NC(=O)C(C)C	4	7	0.7	-43	11	1.0	i	2.0	0.73
Cc1ccc(-c2nc(CS(=O)CC(=O)NC3CCCC3)c(C)o2)cc1 (stereo not drawn)	-3	-1	-7.5	99*	-3	0.9	i	4.1	0.8

Carrying on.
SMILES	rRNA inh HTS	rRNA inh HTS OD600	rRNA inh HTS RFP	ALR H2O2 inh	Beta2AR agonist	HNF4A DNA FP	FGF22 binding	UCH37 DUB inh	Ecoli growth
O=C(CN1C(=O)NC2(CCCC2)C1=O)NNC(=O)c1ccc(Cl)cc1	24	24	1.6	nt	5	-0.4	i	-0.6	0.66
Cc1c(NS(=O)(=O)c2ccc(Br)cc2)c(=O)n(-c2ccccc2)n1C	0	3	-0.2	nt	-3	1.7	i	3.3	0.7
CC(NC(=O)c1cc(-c2ccc(Br)cc2)on1)c1ccccc1 (stereo not drawn)	nt	nt	nt	-3	7	7.3	nt	0.4	0.7
Cc1ccc(NC(=O)O/N=C/c2cccc([N+](=O)[O-])c2)cc1	-5	-2	0.3	4	-9	-2.9	+	nt	nt
O=C(Nc1ccc2c(c1)OCCO2)c1cccc(S(=O)(=O)N2CCOCC2)c1	nt	nt	nt	-1	1	0.9	nt	5.1	0.73
O=[N+]([O-])c1cc(Cl)ccc1N1CCN(c2cccc(C(F)(F)F)c2)CC1	nt	nt	nt	-15	5	0.9	nt	2.8	0.68

Random excerpt: two records from the list.
SMILES	rRNA inh HTS	rRNA inh HTS OD600	rRNA inh HTS RFP	ALR H2O2 inh	Beta2AR agonist	HNF4A DNA FP	FGF22 binding	UCH37 DUB inh	Ecoli growth
O=C(CN1C(=O)NC2(CCCC2)C1=O)NNC(=O)c1ccc(Cl)cc1	24	24	1.6	nt	5	-0.4	i	-0.6	0.66
CC(NC(=O)c1cc(-c2ccc(Br)cc2)on1)c1ccccc1 (stereo not drawn)	nt	nt	nt	-3	7	7.3	nt	0.4	0.7

High-throughput results as filed in PubChem BioAssay.
